Source: PubChem
STK33 inh = inhibitors of human STK33 kinase; Q9BYT3; purified STK33, MBP phosphorylation, ADP-Glo luminescence; inhibition, % at 10 µM; hit rate 0.073% among 320,000;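 active = inhibition at or above 25%, using the most active replicate where run in duplicate; inactive = inhibition below 25%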
Target sequence (Q9BYT3 whole entry, looked up): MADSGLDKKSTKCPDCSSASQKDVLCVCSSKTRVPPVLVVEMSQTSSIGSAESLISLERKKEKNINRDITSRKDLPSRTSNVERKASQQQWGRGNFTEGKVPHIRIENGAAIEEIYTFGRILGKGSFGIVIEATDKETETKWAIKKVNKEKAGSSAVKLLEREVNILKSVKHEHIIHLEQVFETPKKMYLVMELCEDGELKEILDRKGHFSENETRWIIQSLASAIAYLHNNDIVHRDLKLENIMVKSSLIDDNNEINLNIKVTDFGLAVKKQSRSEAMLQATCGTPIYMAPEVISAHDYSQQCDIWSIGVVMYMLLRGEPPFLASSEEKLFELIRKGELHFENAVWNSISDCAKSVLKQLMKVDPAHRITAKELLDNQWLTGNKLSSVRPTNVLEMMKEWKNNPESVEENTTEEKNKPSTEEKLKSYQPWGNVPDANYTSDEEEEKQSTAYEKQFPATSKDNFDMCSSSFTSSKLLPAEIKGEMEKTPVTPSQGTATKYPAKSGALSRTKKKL
* marks the source's active call; other numbers are inactive results. A portion of the library; most or all hits stand in other tables.

Screening COc1ccc(-c2nc(-c3cccc([N+](=O)[O-])c3O)cc(=O)o2)cc1OC returned STK33 inh -1.1.
`CC(C)C(NC(=O)C(NC(=O)C1OC2OC(C)(C)OC2C2OC(C)(C)OC12)C(C)C)C(=O)O` (stereo unspecified) gave STK33 inh 0.2.
CCCNC(=S)NNC(=O)c1cccs1 was read as STK33 inh -0.5.
Cc1c(Cl)cnn1CC(=O)NC1C(=O)N2C(C(=O)O)=C(CSc3nnnn3C)CSC12 (stereo unspecified) was read as STK33 inh -1.2.
For Cc1cc(C)nc(NS(=O)(=O)c2ccc(NC(=O)C(C)Oc3ccccc3F)cc2)n1 (stereo unspecified) the results were STK33 inh -2.2.
Cc1c(CCOC(=O)C23CC4CC(CC(C4)C2)C3)sc[n+]1Cc1ccccc1 was read as STK33 inh -0.8.
`COc1ccc(S(=O)(=O)Nc2c(C)cc(C)cc2C)c2cccnc12` gave STK33 inh -0.1.
`O=C(CCC(=O)N(CC(=O)NC1CCCC1)c1cccc(F)c1)Nc1nccs1` gave STK33 inh 2.8.
Screening COc1ccc(N(CCC(=O)O)S(=O)(=O)c2ccc(C)cc2C)cc1 returned STK33 inh -1.1.
For COc1cc(Cl)ccc1OCc1cc(C(=O)N(C)CCc2c(C)n[nH]c2C)no1 the results were STK33 inh -1.1.
For COc1ccccc1-n1c(N)c(C(N)=O)sc1=S the results were STK33 inh 0.9.
CC1CCCC(C)N1CC(O)COc1ccc(Cl)cc1 (stereo unspecified) was read as STK33 inh -1.4.
Screening CCCCC(=O)Nc1ccc(C(=O)NCc2ccncc2)cc1 returned STK33 inh -0.3.
Screening O=C(c1ccccc1C(=O)N(c1ccccc1)c1ccccc1)N1CCCCC1 returned STK33 inh 0.8.
Screening Cc1cccc2cc(COC(=O)c3cccc([N+](=O)[O-])c3)c(=O)[nH]c12 returned STK33 inh 0.8.
For COc1ccccc1NC(C#N)c1ccccc1OCc1ccccc1 (stereo unspecified) the results were STK33 inh 0.5.
Cc1cccc(NC(=O)c2ccc(NC(=O)CC3SC(N4CCCC4)=NC3=O)cc2)n1 (stereo unspecified) was read as STK33 inh 1.6.
Screening Cc1cccc(Nc2nnc(SCC3CCCCO3)s2)c1 (stereo unspecified) returned STK33 inh -0.6.
O=C(NC1CCCC1)c1cc2nc(-c3ccccc3)cc(-c3ccccc3)n2n1 was read as STK33 inh -1.8.
Screening O=C(NCCc1ccccc1)C(c1ccncc1)N(C(=O)c1csnn1)C1CC1 (stereo unspecified) returned STK33 inh -2.1.

No new results follow: entries from further up.
Screening COc1ccc(-c2nc(-c3cccc([N+](=O)[O-])c3O)cc(=O)o2)cc1OC returned STK33 inh -1.1.
`CC(C)C(NC(=O)C(NC(=O)C1OC2OC(C)(C)OC2C2OC(C)(C)OC12)C(C)C)C(=O)O` (stereo unspecified) gave STK33 inh 0.2.

Further compounds follow:
Screening CC(=O)NCC(=O)OCC(=O)c1ccc(C)c(C)c1 returned STK33 inh -0.9.
Screening COc1cc(C(=O)N2CCN(C(=O)c3ccccc3)CC2)cc(OC)c1OC returned STK33 inh -0.6.
Screening c1ccc2c(c1)CCCN2Cc1nnc2n1CCCCC2 returned STK33 inh -1.0.
O=C(c1ccc(CS(=O)(=O)c2ccc(Br)cc2)o1)N1CCCC1 was read as STK33 inh -0.4.
`CC(C)(C)C(=O)Nc1ccc(-c2cnco2)cc1` gave STK33 inh -0.8.
Cc1ccc2c(CC(=O)NCc3cccs3)coc2c1 was read as STK33 inh -1.0.
Screening c1ccc(OCCSc2nc3ccccc3[nH]2)cc1 returned STK33 inh -2.2.
For CC(C)N(C(=O)COC(=O)[C@@H]1CC(O)CN1S(=O)(=O)c1ccccc1[N+](=O)[O-])C(C)C (stereo partly specified) the results were STK33 inh -2.4.
Screening CCCc1nc2ccccc2c(=O)n1CC(=O)c1ccccc1 returned STK33 inh -0.7.
Screening CC(=O)Nc1ccc(NC(=O)CSc2nc(C)nc3sc(C)c(C)c23)cc1 returned STK33 inh 0.8.
For CCOC(=O)c1ccccc1Cc1nc2ccccc2c(=O)[nH]1 the results were STK33 inh -0.8.
For Cc1ccc(NC(=O)CSc2nnc(N)s2)cc1S(=O)(=O)N1CCCCC1 the results were STK33 inh -0.3.
For Cc1cc(C(F)(F)F)c2sc(N)nc2n1 the results were STK33 inh 0.5.
`O=C(O)Cc1ccc(Nc2cnn(C34CC5CC(CC(CC(=O)O)(C5)C3)C4)c(=O)c2Cl)cc1` gave STK33 inh -1.4.
Screening Cc1ccc(C(=O)N/C(=C/c2ccc(-c3cccc([N+](=O)[O-])c3)o2)C(=O)NC(C)C)cc1 returned STK33 inh -0.5.
For Cc1ccc2oc(C(=O)NCC(c3ccco3)N3CCCC3)c(C)c2c1 (stereo unspecified) the results were STK33 inh -1.8.
For COc1ccc(CCNC(=O)Cn2nnc(-c3ccc(N4CCOCC4)cc3)n2)cc1OC the results were STK33 inh -1.1.
Screening CC(C)NC(=O)COc1coc(CN2CCN(c3ccccc3)CC2)cc1=O returned STK33 inh -1.3.
Screening O=C(NCc1ccco1)c1cccc(S(=O)(=O)N2CCCCC2)c1 returned STK33 inh 1.1.
CCN1CCN(c2nc3c(c(=O)n(C)c(=O)n3C)n2Cc2cccc3ccccc23)CC1 was read as STK33 inh -1.2.

An excerpt from above in order of SMILES length, rising:
Screening c1ccc2c(c1)CCCN2Cc1nnc2n1CCCCC2 returned STK33 inh -1.0.
`CC(C)(C)C(=O)Nc1ccc(-c2cnco2)cc1` gave STK33 inh -0.8.
For CCOC(=O)c1ccccc1Cc1nc2ccccc2c(=O)[nH]1 the results were STK33 inh -0.8.
For Cc1ccc2oc(C(=O)NCC(c3ccco3)N3CCCC3)c(C)c2c1 (stereo unspecified) the results were STK33 inh -1.8.
Screening COc1cc(C(=O)N2CCN(C(=O)c3ccccc3)CC2)cc(OC)c1OC returned STK33 inh -0.6.
CCN1CCN(c2nc3c(c(=O)n(C)c(=O)n3C)n2Cc2cccc3ccccc23)CC1 was read as STK33 inh -1.2.
Screening Cc1ccc(C(=O)N/C(=C/c2ccc(-c3cccc([N+](=O)[O-])c3)o2)C(=O)NC(C)C)cc1 returned STK33 inh -0.5.

(cont.)
For CC(=O)NN=C1CCC(c2ccccc2)CC1 (stereo unspecified) the results were STK33 inh -0.4.
`CC(=O)Nc1cccc(N2C(=O)CCC2=O)c1` gave STK33 inh -2.6.
For O=C(CN1CCN(c2ncccn2)CC1)NCCC1=CCCCC1 the results were STK33 inh 4.3.
COC(=O)CC(NC(=O)c1ccc(C)cc1)c1ccccc1 (stereo unspecified) was read as STK33 inh -0.6.
Screening CCOC(=O)c1c(NC(C)=O)sc2c1CCC(C=NCCCN(CC)CC)=C2Sc1ccccc1 returned STK33 inh -0.1.
For COCCn1nnnc1CN1CCN(c2cccc(C(F)(F)F)c2)CC1 the results were STK33 inh 0.0.
`COc1cc(C(=O)OCC(=O)Nc2cccc(S(=O)(=O)N3CCOCC3)c2)ccc1OCC(C)C` gave STK33 inh -1.4.
Screening O=C(Nc1ccc(C(F)(F)F)cc1)C1CCN(c2cnccn2)CC1 returned STK33 inh 0.2.
Screening COc1cc(CC(=O)NCC2CCCCC2)cc(OC)c1OC returned STK33 inh 0.0.
CCOc1ccc(OCc2ccc(C(=O)NC(C)C)o2)cc1 was read as STK33 inh -0.6.
For COc1ccc(NC(=O)C2CCN(c3cc(C)nc(-c4ccccc4)n3)CC2)cc1 the results were STK33 inh -1.2.
For CCCOc1ccc(N2C(=O)CC(N3CCN(CCN=CC4C(=O)CC(C)(C)CC4=O)CC3)C2=O)cc1 (stereo unspecified) the results were STK33 inh -0.3.
`COc1ccc2ccccc2c1/C=N/NC(=O)c1ccc([N+](=O)[O-])cc1` gave STK33 inh -1.4.
`CCOC(=O)c1c(C)[nH]c(C)c1C(=O)COC(=O)/C=C/c1cccc(C(F)(F)F)c1` gave STK33 inh -1.3.
O=C(/C=C/c1ccco1)NC(=S)Nc1ccccc1Br was read as STK33 inh -2.9.
Screening CS(=O)(=O)Nc1cccc(C2=NN(C(=O)c3cccc(F)c3)C(c3cccs3)C2)c1 (stereo unspecified) returned STK33 inh 0.6.
Screening COCCn1c(C)cc(C(=O)COC(=O)C2CC(=O)N(CCc3ccc(OC)c(OC)c3)C2)c1C (stereo unspecified) returned STK33 inh -0.8.
For CC(=O)Cc1nsc(NC(=O)c2ccc(-c3ccccc3Cl)o2)n1 the results were STK33 inh -1.9.
For Cc1cc(C)cc(N(CC(=O)NC(C)C)C(=O)CCC(=O)Nc2ccccn2)c1 the results were STK33 inh 1.4.
For COc1ccc(NS(=O)(=O)c2ccc(NC(C)=O)cc2)c(OC)c1 the results were STK33 inh -0.4.

Random excerpt: two entries already listed, in no set order.
`COc1cc(C(=O)OCC(=O)Nc2cccc(S(=O)(=O)N3CCOCC3)c2)ccc1OCC(C)C` gave STK33 inh -1.4.
`COc1ccc2ccccc2c1/C=N/NC(=O)c1ccc([N+](=O)[O-])cc1` gave STK33 inh -1.4.

(further entries)
Screening CC[n+]1c(C)n(-c2ccccc2)c2ccc(NC(C)=O)cc21 returned STK33 inh 0.3.
Screening Cc1oncc1C(=S)Nc1ccccc1 returned STK33 inh -1.3.
Screening C=CCn1c(Oc2cccc(C)c2)nc2c1c(=O)n(C)c(=O)n2C returned STK33 inh -0.6.
Screening CC(CN1CCN(C)CC1)OC(=O)c1ccc(Cl)cc1Cl (stereo unspecified) returned STK33 inh -3.2.
`O=C(Nc1ccc(CN2CCOCC2)cc1)c1cc(Br)ccc1Cl` gave STK33 inh -18.
For CCCn1cnnc1CNC(=O)C1CCC(=O)N(CCc2cccc(F)c2)C1 (stereo unspecified) the results were STK33 inh -1.4.
CCn1cc(C(=O)O)c(=O)c2cc(F)c(N3CCN(C(=S)NC(=O)c4ccccc4C)CC3)cc21 was read as STK33 inh -1.5.
`Cc1cc(C(=O)OCc2nnc(-c3ccccc3)o2)c(C)n1-c1ccccc1` gave STK33 inh -1.4.
`O=C(Nc1ccncc1)c1ccc2ccccc2c1` gave STK33 inh 0.8.
Screening O=C(CSc1nnnn1-c1ccc2c(c1)OCCO2)N1CCN(C(=O)c2ccco2)CC1 returned STK33 inh -1.4.
`CCc1nc2ccccc2c(=O)n1/N=C/c1ccc(OC)cc1` gave STK33 inh -0.7.
`Cc1cccc(OCC(=O)N(Cc2ccc(F)cc2)C2CCS(=O)(=O)C2)c1C` (stereo unspecified) gave STK33 inh 1.3.
N#Cc1ccc(-c2ccc(F)cc2)nc1Oc1ccc(Cl)c(Cl)c1 was read as STK33 inh -2.2.
Cc1cc2c(cc1S(=O)(=O)NCc1ccc(Cl)cc1)OCC(=O)N2 was read as STK33 inh 0.7.
CCN(CC)C(=O)COc1coc(CN2CCN(c3ccc(F)cc3)CC2)cc1=O was read as STK33 inh -1.3.
C=CCN1C(=O)C(C)S/C1=N\S(=O)(=O)c1ccc(Cl)cc1 (stereo unspecified) was read as STK33 inh -0.8.
Screening COc1ccc(OC)c(NC(=O)CCN2CCN(CCO)CC2)c1 returned STK33 inh -1.1.
CCCCCn1c(SCC(=O)OC)nc2c1c(=O)[nH]c(=O)n2C was read as STK33 inh -0.7.
Screening NC(=O)C1CCN(C(=O)c2cc3ccccn3n2)CC1 returned STK33 inh -0.9.
O=[N+]([O-])c1ccc(Cc2nnc(-c3ccccc3Cl)o2)cc1 was read as STK33 inh -1.8.
COCCn1nnnc1C(c1cc(OC)ccc1OC)N1CCc2ccccc2C1 (stereo unspecified) was read as STK33 inh 0.9.
For CCOc1cc(/C=N/NC(=O)c2ccccn2)ccc1OC(=O)c1ccc(F)cc1 the results were STK33 inh -0.8.
For NC1=NC(=O)/C(=C\c2cccs2)S1 the results were STK33 inh 1.0.
CC1(C(=O)NC(=S)NNC(=O)c2ccncc2)CCCCC1 was read as STK33 inh -0.6.
Screening CCOc1cc(N2CCOCC2)c(OCC)cc1NC(=O)Cn1[nH]c(=O)c2ccccc2c1=O returned STK33 inh -3.4.
`COc1ccc(C2(O)CCN(C(=O)c3ccc4c(c3)OCO4)CC2)cc1` gave STK33 inh -3.1.
Screening CC(Sc1n[nH]c(=O)[nH]c1=O)C(=O)OCc1ccccc1 (stereo unspecified) returned STK33 inh -0.3.
O=S(=O)(c1ccc(OCC(O)CNCc2ccco2)c(Cl)c1)N1CCOCC1 (stereo unspecified) was read as STK33 inh 1.5.
For C=CCn1cc(C(=O)N2CCN(CC)CC2)c(=O)c2cc(S(=O)(=O)N(CC)CC)ccc21 the results were STK33 inh -0.1.
`Cc1ccnc(NC(=O)c2ccc(S(=O)(=O)N3CCCC3)cc2)c1` gave STK33 inh 5.0.
`CN1CCN(c2nnc(-c3cccs3)c3ccccc23)CC1` gave STK33 inh -1.1.
CCOC(=O)C(=O)/C(=C\N(C)C)c1onc(-c2ccccc2Cl)c1C(=O)OC was read as STK33 inh -1.2.
`COc1ccc(OCC(=O)OC(C)CN2CCCCC2)cc1` (stereo unspecified) gave STK33 inh -1.7.
CCc1nnc(NS(=O)(=O)c2ccc(NC(=O)COc3ccc(Cl)c(C)c3)cc2)s1 was read as STK33 inh -1.2.
For CC(C)(C)[C@H]1C=C(C(=O)NCc2ccccc2)O[C@@H](OCc2ccc(CO)cc2)C1 the results were STK33 inh -1.1.
`O=C(NNS(=O)(=O)c1ccccc1F)c1cccc(S(=O)(=O)N2CCOCC2)c1` gave STK33 inh 0.1.
For CSCC(C)N1CCC(n2nccc2NC(=O)CCCc2ccccc2)CC1 (stereo unspecified) the results were STK33 inh -0.6.
`Cc1ccc(NC(=O)COC(=O)CCc2ccc(S(=O)(=O)N3CCOCC3)cc2)c(C)c1` gave STK33 inh 1.4.
`CCCC(=O)OCCNc1cc(SCc2ccco2)c2nonc2c1[N+](=O)[O-]` gave STK33 inh 1.1.

Entries listed so far that have a nitro group on carbon:
Screening COc1ccc(-c2nc(-c3cccc([N+](=O)[O-])c3O)cc(=O)o2)cc1OC returned STK33 inh -1.1.
Screening Cc1cccc2cc(COC(=O)c3cccc([N+](=O)[O-])c3)c(=O)[nH]c12 returned STK33 inh 0.8.
For CC(C)N(C(=O)COC(=O)[C@@H]1CC(O)CN1S(=O)(=O)c1ccccc1[N+](=O)[O-])C(C)C (stereo partly specified) the results were STK33 inh -2.4.
Screening Cc1ccc(C(=O)N/C(=C/c2ccc(-c3cccc([N+](=O)[O-])c3)o2)C(=O)NC(C)C)cc1 returned STK33 inh -0.5.
`COc1ccc2ccccc2c1/C=N/NC(=O)c1ccc([N+](=O)[O-])cc1` gave STK33 inh -1.4.
O=[N+]([O-])c1ccc(Cc2nnc(-c3ccccc3Cl)o2)cc1 was read as STK33 inh -1.8.
`CCCC(=O)OCCNc1cc(SCc2ccco2)c2nonc2c1[N+](=O)[O-]` gave STK33 inh 1.1.
